# Bioassay records: PubChem, National Center for Advancing Translational Sciences (NCATS)
# 2A StopGo: High Throughput Screening for Foot and Mouth Disease Virus Antivirals. human cells with a luciferase reporter of 2A StopGo recoding; control for the full effect not named in the record. Potency, µM (highest dose often 57.9 µM), for the others: at the top dose signal change, negative = less light. 1.2% of 410,000 active. AID 1159524, 2015; active = well fitted falling curve with a large enough effect; inconclusive = small, poorly fitted or top-dose-only effect; inactive = no such curve, though single readings can be large or run the other way; tested in HEK293T cells; note: % is set by controls: 0 for no effect and ±100 for the full control effect; nearly all actives have a fitted effect of over 45% in size; luciferase light after 4 h
# NS1 inh: qHTS Assay for Inhibitors of Influenza NS1 Protein Function; S. cerevisiae slowed by influenza A NS1, growth recovery by OD600; Potency, µM (series often up to 46.1 µM), inactives show at the top dose activity, positive = more growth; 0.4% of 270,000 active; AID 2326, 2010; active means well fitted rising curve with a large enough effect; inconclusive means small, poorly fitted or top-dose-only effect; inactive means no such curve, though single readings can be large or run the other way; note: nearly all actives have a fitted effect of over 50% in size
#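 S. cerevisiae expressing influenza A NS1, grown in glucose, washed, then diluted 1:100 into pH 6.0 -URA galactose medium with 23 nl compound. Growth recovery read as OD600; NS1-free strain serves as control.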
# Marburg entry inh: qHTS for inhibitors of binding or entry into cells for Marburg Virus; Marburg virus pseudotyped entry inhibition, cell reporter; control for the full effect not named in the record; about a third of the inactives were read at about 46 µM; Potency, µM (series often up to 37.8 µM), for the others: top-dose activity change, negative = inhibition, most hits filed as inhibitors; 1.8% of 300,000 active; active = well fitted inhibition curve with a large enough effect; inconclusive = small, poorly fitted or top-dose-only effect, or effect the other way; inactive = flat fitted curve, though single readings scatter; tested in HEK293 cells; about a fifth of its hits are not listed in these tables; note: % is set by controls: 0 for no effect and ±100 for the full control effect; luciferase read-out
# RE007 growth inh: qHTS Assay for Inhibitors of the HIV-1 protein Vpr. S. pombe RE007 Vpr strain, BacTiter-Glo ATP luminescence, 24 h; control for the full effect not named in the record. Potency, µM (doses to about 92.2 µM), inactives show at the top dose activity change, negative = less growth. 0.21% of 360,000 active; active = well fitted falling curve with a large enough effect; inconclusive = small, poorly fitted or top-dose-only effect; inactive = no such curve, though single readings can be large or run the other way;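 note: % is set by controls: 0 for no effect and ±100 for the full control effect; nearly all actives have a fitted effect of over 50% in size; the assay follows cell death caused by Vpr and the record does not say whether a fall means rescue or toxicity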
#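 Fission yeast strain RE007, carrying one chromosomally integrated HIV-1 vpr copy, was seeded at OD 0.01 in PMG+AL medium with 23 nL pinned compound. After 24 h at 30 °C and 99% humidity, viability was read by BacTiter-Glo luminescence.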
# Cruzain noTriton: qHTS Assay for Promiscuous and Specific Inhibitors of Cruzain (without detergent); AID 1476, 2009; Potency, µM, for the others: max response, negative = inhibition, most hits filed as inhibitors; Cruzipain (Trypanosoma cruzi), P25779; 2.3% of 200,000 active; purified cruzain, Z-FR-AMC fluorescence, no detergent;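 note: plate controls were enzyme without inhibitor for no effect and buffer without enzyme for full effect; nearly all actives have a fitted effect of over 40% in size; top concentration of the series not given in the record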
# Target sequence (P25779 123-467 limits assumed): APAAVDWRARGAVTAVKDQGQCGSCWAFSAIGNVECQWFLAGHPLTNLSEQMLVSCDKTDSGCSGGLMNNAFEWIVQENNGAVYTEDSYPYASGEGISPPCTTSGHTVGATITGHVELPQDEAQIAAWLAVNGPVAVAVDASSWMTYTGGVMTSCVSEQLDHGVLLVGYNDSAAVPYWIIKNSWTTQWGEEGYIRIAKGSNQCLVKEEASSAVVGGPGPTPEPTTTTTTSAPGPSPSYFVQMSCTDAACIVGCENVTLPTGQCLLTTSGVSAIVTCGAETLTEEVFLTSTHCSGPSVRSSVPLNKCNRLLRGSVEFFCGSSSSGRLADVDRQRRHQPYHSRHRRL
#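 Detergent-free condition (0.00005% Triton X-100) in acetate buffer pH 5.5 with DTT. 1.5 nM enzyme and compound were pre-mixed 15 min, then 2 uM Z-FR-AMC substrate added; reaction progress from fluorescence change between first and third reads (60 s).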
# SARS PLP yeast: qHTS of Yeast-based Assay for SARS-CoV PLP | S. cerevisiae expressing SARS-CoV PLpro, growth rescue; control for the full effect not named in the record | Potency, µM (highest dose often 32.9 µM), for inactives: top-dose activity, positive = growth rescue | 0.19% of 330,000 active | AID 485353, 2010; active means well fitted rising curve with a large enough effect; inconclusive means small, poorly fitted or top-dose-only effect; inactive means no such curve, though single readings can be large or run the other way; note: 0% is about no effect; nearly all actives have a fitted effect of over 55% in size; growth read by luminescence after 48 h
# LASV entry inh: qHTS for Inhibitors of binding or entry into cells for Lassa Virus; Lassa virus pseudotype entry inhibition, cell reporter; control for the full effect not named in the record; Potency, µM (titrated, usually from 37.9 µM), for the others: at the top dose activity change, negative = inhibition, actives largely listed as inhibitors; 1.2% of 300,000 active; active means well fitted inhibition curve with a large enough effect; inconclusive means small, poorly fitted or top-dose-only effect, or effect the other way; inactive means flat fitted curve, though single readings scatter; tested in HEK293 cells; note: % is set by controls: 0 for no effect and ±100 for the full control effect; nearly all actives have a fitted effect of over 50% in size; luciferase read-out
# Cruzain inh Det: qHTS Assay for Promiscuous and Specific Inhibitors of Cruzain (with detergent); purified cruzain, Z-FR-AMC fluorescence, 0.01% Triton; Potency, µM, inactives show max response, negative = inhibition, most hits filed as inhibitors; 0.43% of 200,000 active; AID 1478, 2009;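 note: plate controls were neutral wells for no effect and buffer without enzyme for full effect; nearly all actives have a fitted effect of over 40% in size; top concentration of the series not given in the record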
#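 Read-out: AMC fluorescence (360 nm excitation, 450 nm emission), four reads over 2 min, first-to-third difference used. Conditions: cruzain 1.5 nM, Z-FR-AMC 2 uM, pH 5.5 acetate, 5 mM DTT, 0.01% Triton X-100.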
# * marks the source's active call; other numbers are inactive results; ? = inconclusive; . = no result given; [ ] = dose if it differs, or a comment. Unless noted, calls come from the whole dose curve; as a rule, active = well fitted curve in the direction sought with a large enough effect; inconclusive = small, poorly fitted or top-dose-only effect, or another doubt; inactive = no such curve, though single readings can be large; an effect the other way counts as inactive or inconclusive. Potency is the fitted concentration of half-maximal effect.
SMILES,2A StopGo,NS1 inh,Marburg entry inh,RE007 growth inh,Cruzain noTriton,SARS PLP yeast,LASV entry inh,Cruzain inh Det
CC(C)Oc1ccc(-c2cc(C(=O)NCCN3CCOCC3)c3ccccc3n2)cc1,11%,-1%,-5%,14%,-7%,-9%,-11%,-5.0%
Cc1nc(CNS(=O)(=O)c2cc([N+](=O)[O-])ccc2C)cs1,3%,-5%,.,-6%,.,1%,.,.
CCCCCCn1c(SCC(C)C)nc2c1c(=O)[nH]c(=O)n2C,?,-2%,-22%,8%,-25%,-2%,-5%,-0.3%
O=C(CN1C2=NCCN2c2ccccc21)c1cccs1,-18%,12%,-19%,-1%,-4%,-3%,16%,-3.8%
CCc1ccc2[nH]c(=O)c(CN(Cc3ccccc3OC)Cc3nnnn3Cc3ccco3)cc2c1,?,?,?,0%,-3%,0%,?,-13%
CS(=O)(=O)N1CCc2cc(C(=O)Nc3ccccc3Cl)ccc21,16%,-26%,14%[46.1 µM],-4%,.,-20%,?,.
COc1ccc(C(=O)N/N=C/C23CC[C@@H](O)CC2(O)CC[C@@H]2[C@@H]3CCC3(C)C(C4=CC(=O)OC4)CCC23O)cc1 (stereo not given in full),?,2%,.,20%,.,1%,.,.
NP(=O)(OCCCc1ccccc1)Oc1ccc(Cl)cc1 (stereo not given),-12%,-18%,.,-10%,.,-3%,.,.
CCOc1ccccc1NC(=O)Nc1ccc2nc(N3CCN(C)CC3)cc(C)c2c1,23%,.,.,.,-2%,.,?,-5.7%
O=C(Nc1nc2nc(-c3ccccc3)cc(=O)n2[nH]1)c1ccc(F)cc1,3%,.,-1%[46.1 µM],.,-1%,5%,10%[46.1 µM],-1.3%
Cc1cc(C)cc(NC(=O)CSc2nnc(Cn3c(=O)sc4ccccc43)n2C)c1,4%,2%,.,7%,6%,10%,.,-1.5%
O=C(c1cccs1)c1ccc(-c2cccs2)s1,-51%,-29%,11µM*,-27%,-17%,4%,?,-8.6%
CN(C)S(=O)(=O)c1ccc(Cl)c(NC(=O)CSc2nc3c(cc2C#N)C(=O)CC(C)(C)C3)c1,?,?,-6%,-8%,-11%,10%,?,0.8%
Cc1ccc(C(=O)NC(=C(Cl)Cl)S(=O)(=O)c2ccc(Cl)cc2)cc1,?,3%,.,0%,.,-1%,.,.
O=C(NCCc1ccccc1)C1CCCN1C(=O)Nc1ccc(Cl)cc1 (stereo not given),3%,12%,.,8%,.,-3%,.,.

# Entries of single compounds from above:
# O=C(NCCc1ccccc1)C1CCCN1C(=O)Nc1ccc(Cl)cc1 (stereo not given) is entered as 2A StopGo = 3%; NS1 inh = 12%; Marburg entry inh = .; RE007 growth inh = 8%; Cruzain noTriton = .; SARS PLP yeast = -3%; LASV entry inh = .; Cruzain inh Det = .
# O=C(Nc1nc2nc(-c3ccccc3)cc(=O)n2[nH]1)c1ccc(F)cc1 is entered as 2A StopGo = 3%; NS1 inh = .; Marburg entry inh = -1%[46.1 µM]; RE007 growth inh = .; Cruzain noTriton = -1%; SARS PLP yeast = 5%; LASV entry inh = 10%[46.1 µM]; Cruzain inh Det = -1.3%
# CC(C)Oc1ccc(-c2cc(C(=O)NCCN3CCOCC3)c3ccccc3n2)cc1 is entered as 2A StopGo = 11%; NS1 inh = -1%; Marburg entry inh = -5%; RE007 growth inh = 14%; Cruzain noTriton = -7%; SARS PLP yeast = -9%; LASV entry inh = -11%; Cruzain inh Det = -5.0%

# The results go on.
SMILES,2A StopGo,NS1 inh,Marburg entry inh,RE007 growth inh,Cruzain noTriton,SARS PLP yeast,LASV entry inh,Cruzain inh Det
CC(=O)Oc1ccc(C(=O)Nc2ccc(S(=O)(=O)NCC3CCCO3)cc2)cc1 (stereo not given),12%,1%,?,1%,.,-1%,-4%[46.1 µM],.
CCCCCCCC(=O)OC(CN1CCCCCC1)CN1CCCC1=O (stereo not given),-16%,3%,-8%,-3%,.,0%,10%,.
CCOC(=O)C1CCCN(C(=S)Nc2ccc(S(=O)(=O)N3CCOCC3)cc2)C1 (stereo not given),-7%,.,-16%,-3%,.,4%,-22%,.
Cc1c(NC(=O)c2ccc(-c3cccc([N+](=O)[O-])c3)o2)cccc1-c1nc2cc(Cl)ccc2o1,48%[activator],.,30%[46.1 µM],.,3.2µM*,.,23%[46.1 µM],-6.4%
CCOC(=O)C1CCN(Cc2nc(-c3ccc(OC)c(OC)c3)no2)CC1,-27%,-8%,-5%,1%,?,-1%,-13%,-0.3%
Cc1ccc(CSc2oc(-c3ccco3)nc2S(=O)(=O)c2ccc(C)cc2)cc1,-26%,.,0%[46.1 µM],.,-11%,.,?,-8.6%
Cn1cc([N+](=O)[O-])c(C(=O)N/N=C/c2cc3c(cc2Br)OCO3)n1,-4%,2%,.,-4%,.,1%,.,.
Cn1nnnc1SCC(=O)Nc1ccc(C(=O)N2CCN(Cc3ccccc3F)CC2)cc1,-25%,.,11%,1%,.,-2%,16%,.
COc1ccc(CCNC(=O)c2ccccc2OCc2c(C)noc2C)cc1,-27%,.,3%,-17%,.,-1%,-17%,.
COc1ccc(C(=O)Nc2ccc3oc(-c4ccc(OC)cc4)nc3c2)cc1,38%[activator],.,13%[46.1 µM],.,4%,.,?,-2.1%
Cc1ccc(NC(=O)c2ccc3c(c2)nnn3C)cc1,44%[activator],18%,5%,3%,-7%,-17%,18%,0.6%
Nc1nc(SCc2nc3sc4c(c3c(=O)[nH]2)CCCC4)n[nH]1,-11%,22%,15%,8%,-29%,-4%,-3%,-5.7%
CCOc1ccccc1C(=O)NCc1ccc2c(c1)CCN2C(=O)c1ccc(F)cc1,?,.,.,.,2%,.,-22%[46.1 µM],-0.3%
O=C(CCNC(=O)c1ccco1)Nc1ccc(Cl)c(C(F)(F)F)c1,-25%,3%,-18%[46.1 µM],10%,.,13%,.,.
COC(=O)c1cc(=O)nc2sc(-c3cccs3)nn12,8%,-2%,27%,-10%,-2%,-2%,-5%,-7.2%
Cc1ccc(CSc2ccc3nnc(-c4ccccn4)n3n2)cc1,?,.,-9%,-3%,.,14%,-18%,.
CCn1nc(C(=O)OCc2c(C)noc2C)c2ccccc2c1=O,-4%,-9%,9%,3%,4%,-2%,7%,6.3%
O=c1oc2ccccc2cc1-c1csc(Nc2nc3c(F)cccc3s2)n1,7.1µM*,27%,?,9%,32µM*,-12%,?,-3.3%
O=C(O)CSc1nc2sc3c(c2c(=O)n1Cc1ccccc1)CCCCC3,39%[activator],11%,?,-9%,.,-3%,23%,.
Cc1ccccc1CNC(=O)CCCC(=O)n1nc(C)c2ccccc21,16%,-29%,6%[46.1 µM],-4%,.,-8%,-5%[46.1 µM],.
CCn1ccnc1CN1CCCC(C(=O)c2cc(F)ccc2OC)C1 (stereo not given),?,2%,-1%[46.1 µM],-9%,.,-1%,25%,.
Cc1n[nH]c2ccccc2c1=O,-18%,-1%,13%,-4%,3%,.,13%,0.3%
Cc1cc(C)n(-c2cc(N3CCN(C(=O)c4ccc(C(C)(C)C)cc4)CC3)ccc2[N+](=O)[O-])n1,?,15%,?,-2%,3%,1%,-19%,-9.5%
CC(=O)NC1C(=O)N(CCN2CCOCC2)c2ccc(F)cc21 (stereo not given),-16%,2%,.,-16%,.,1%,.,.
Cc1ccc(/C=N/NC(=O)c2ccoc2C)o1,20%,-6%,?,-3%,6%,-10%,11%,-2.9%
COc1ccccc1C1CCN(c2ccc([N+](=O)[O-])cn2)CC1,1%,-3%,11%[46.1 µM],-3%,.,-2%,3%,.
COC(=O)c1ccc(/C=C2\SC(=S)N(CCCC(=O)NCCCN3CCOCC3)C2=O)cc1,-9%,5%,?,-14%,.,0%,.,.
CC1CN(C(=O)COc2coc(CN3CCc4ccccc4C3)cc2=O)CC(C)O1 (stereo not given),6%,.,-1%,-3%,.,0%,0%,.
O=C(Nc1ccccc1)c1ccccc1NC(=O)C(F)(F)F,-23%,-36%,-15%,-21%,-6%,-26%,-1%,-4.7%
COc1ccc(-c2ccc(SCC(=O)N3CCOCC3)nn2)cc1,23%,-13%,2%,2%,1%,2%,49%[14.3 µM],-0.1%
Cc1ccc(C)c(/C=N/n2cc(-c3ccccc3)[nH]c2=S)c1,-7%,.,-10%[46.1 µM],-4%,.,0%,-7%,.
CCCCOC(=O)c1ccc(OC(=O)N2CCOCC2)cc1,18%,-7%,.,-22%,.,4%,.,.
CC1Cc2ccccc2N1C(=O)CSc1nc2ccccc2n1CC(=O)N1CCOCC1 (stereo not given),-1%,-9%,?,-10%,27%,-2%,20%,-4.3%
COc1ccc(C2C(C(=O)N3CCOCC3)CCC(=O)N2c2cc(OC)c(OC)c(OC)c2)cc1 (stereo not given),-5%,0%,?,-18%,1%,-7%,1%,3.0%

# Shown tab-delimited: 3 of the compounds above
Structure	2A StopGo	NS1 inh	Marburg entry inh	RE007 growth inh	Cruzain noTriton	SARS PLP yeast	LASV entry inh	Cruzain inh Det
CCCCCCn1c(SCC(C)C)nc2c1c(=O)[nH]c(=O)n2C	?	-2%	-22%	8%	-25%	-2%	-5%	-0.3%
O=C(CN1C2=NCCN2c2ccccc21)c1cccs1	-18%	12%	-19%	-1%	-4%	-3%	16%	-3.8%
CCc1ccc2[nH]c(=O)c(CN(Cc3ccccc3OC)Cc3nnnn3Cc3ccco3)cc2c1	?	?	?	0%	-3%	0%	?	-13%
